NPYLR7 agonist = agonists of mosquito NPYLR7 receptor, primary screen, cell-based, Aedes aegypti, calcium fluorescence, mosquito biting behavior. HEK293T NPYLR7/Galpha15, GCaMP6s calcium fluorescence. 0.15% of 270,000 active. Aedes aegypti neuropeptide Y-like receptor 7 (NPYLR7). activation, % at 10 µM; in the data active = activation above about 40%;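 note: 0% = vehicle and 100% = reference agonist at the receptor; some compounds past the cut are filed as inactive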
NPYLR7 agonist max-min = also measured in NPYLR7 agonist; calls as there; activation, %; measured here: Max-Min RFU normalised activation; some inactives read as strong as hits;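 span of the calcium signal over five minutes; 0% = vehicle and 100% = native peptide agonist; compound fluorescence can raise it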
* = called active by the depositor; & = joins results of further samples. Not all compounds are listed. The share of hits here may be higher or lower than overall.

Under each structure – NPYLR7 agonist	NPYLR7 agonist max-min
#1 CC(=O)c1cccc2c(O)c(C3=Nc4ccccc4C3=O)[nH]c12
→ -4.7	-4.8
#2 Cc1cc2c(=O)n(Cc3ccco3)c(SCC(=O)NC3CCCCC3)nc2s1
→ 15.3	11.9
#3 COc1ccc(C2=N/C(=C\c3sccc3C)C(=O)O2)cc1Br
→ -2.7	-6.5
#4 COc1ccc2[nH]cc(C3CCN(S(=O)(=O)c4c(F)c(Br)cc(F)c4Br)CC3)c2c1
→ 28.1	14.1
#5 C[C@H](NC(=O)Nc1ccc(I)cc1)C(=O)N1CCC(C(=O)N2CCOCC2)CC1
→ 33.5	27.2
#6 Cn1c(=O)cc(C(=O)N2CC[C@H](CO)[C@@H](O)C2)c2ccccc21
→ 0.6	-4.5
#7 CC1CN(C2CCN(C(=O)C3(NC(=O)OC(C)(C)C)CCCC3)CC2)CCO1 (centres undefined)
→ 1.8	-8.3
#8 Cc1ccccc1C(NC(=O)C1CCN(CC(C)C)CC1)c1cnccn1 (centres undefined)
→ 2.7	-4.2
#9 COc1ccc(CCNC(=O)c2cccnc2N2CCN(C(=O)Nc3ccc(CC#N)cc3)CC2)cc1OC
→ -7.4	-9.9
#10 Cc1ccc(-c2noc(-c3ccc(Br)o3)n2)cc1
→ 2.3	1.4
#11 CC(C)c1cc(C(=O)OC2C3CCOC3C2(C)C)n[nH]1 (centres undefined)
→ 5.3	1.7
#12 O=C(Cn1c2ccccc2c(=O)c2ccccc21)Nc1c(F)cc(F)cc1Br
→ -0.4	-6.3
#13 CCc1nc2n(n1)C(=O)C(C(c1ccc(Cl)cc1)N1CCN(C)CC1)S2 (centres undefined)
→ -3.7	-9.0
#14 CCN(CC)C(CNS(=O)(=O)c1cccs1)c1ccsc1 (centres undefined)
→ 8.7	7.3
#15 COc1ccc(Cl)cc1-c1nc(SCc2ccno2)n[nH]1
→ -1.2	-1.8
#16 O=C(Cn1cccc(C(F)(F)F)c1=O)c1ccc2c(c1)CCC2
→ 1.4	-1.7
#17 CCCc1cc(=O)n(CC(=O)Nc2ccc(C)cc2)c(-n2nc(C)cc2C)n1
→ -2.4	2.5
#18 CCN1CCCCC1C(=O)N1CCOc2ccc(CN3CCC(OCc4ccccc4)CC3)cc2C1 (centres undefined)
→ 5.4	3.9
#19 Cc1cccc(C(C)CNC(=O)N2CCN(Cc3ccon3)CC2)c1 (centres undefined)
→ 7.2	3.8
#20 CCOc1cccc(C(=O)N2CCC(n3cnc4ccc(F)cc43)CC2)c1
→ 5.1	11.6
#21 Cc1nonc1CN(C)C(=O)C1CC12CCN(C(=O)c1cccc(-c3ccccc3F)c1)CC2 (centres undefined)
→ 5.9	2.9
#22 COc1ccccc1-n1c(SCC(=O)N2CCC(C)CC2)nc2c([nH]c3ccccc32)c1=O
→ -5.3	-3.3
#23 CCCC(=O)NNC(=O)c1sc(-c2ccccc2)nc1C
→ 0.0	4.8
#24 CC(C(=O)NC1CCC(n2cnnc2)CC1)n1cnc2ccccc21 (centres undefined)
→ 11.3	3.5
#25 COc1ccc(CCN2CCC(CN(C)C(=O)C3=CCCC3)CC2)cc1
→ 3.4	-2.7
#26 CSC1(CNc2ccc(C#N)cc2F)CCOCC1
→ 13.3	12.8
#27 Cc1ccn(-c2ccc(Nc3ccc(NC(=O)Nc4cccc(F)c4)cc3)nn2)n1
→ -1.1	-5.3
#28 CC(=NNc1ncc(Cl)cc1Cl)c1ccc(Cl)s1
→ 1.9	-2.4
#29 O=C(NCC1CCCO1)c1cnn(-c2ccccc2Cl)c1-c1ccccc1 (centres undefined)
→ 1.6	3.8
#30 Cc1ccc(-n2nc(C(=O)N(C)C3CCCCC3)c(=O)n(Cc3ccccc3C)c2=O)cc1
→ 13.6	9.5
#31 COc1ccc(CCNC(=O)c2ccc(Cl)cc2NS(=O)(=O)c2ccc(OC)c(OC)c2)cc1
→ 0.5	-3.5
#32 Cc1ccc(-c2ccnc(NC(c3nccn3C)C(C)C)n2)c(C)n1 (centres undefined)
→ -5.8	-5.2
#33 Cc1nnc(CNCc2csc(C34CC5CC(CC(C5)C3)C4)n2)o1
→ 3.6	-0.6
#34 O=S(=O)(c1ccc2c3c(cccc13)CC2)N1CCSC1
→ 7.3	1.9
#35 O=C(c1ccc(Cl)cc1)N1CCOC(COCc2cccc(C(F)(F)F)c2)C1 (centres undefined)
→ 17.7	27.2
#36 COCCC(=O)NC1CCc2[nH]c3cc(Cl)cc(Cl)c3c2C1 (centres undefined)
→ 26.7	11.4
#37 COc1ccc(/C=C2\C=C(c3ccccc3)N(c3ccc(C)cc3Br)C2=O)cc1Br
→ -1.5	2.1
#38 Cc1cccc2sc(NC(=O)CN3CCCC4(CC3)CNC(=O)O4)nc12 (centres undefined)
→ -1.9	-5.5
#39 Cc1ccc(C)c(NC(=O)CCN2CCC(Oc3cccnc3)CC2)c1
→ -5.8	-9.1
#40 CCc1cnc(C)nc1N1CCCN(C(=O)c2ccoc2)CC1
→ -0.9	31.6
#41 COCCCn1c(=S)[nH]c2cc(C(=O)Nc3ccc(F)c(F)c3)ccc2c1=O
→ 11.3	11.3
#42 COCCn1c(SCC(=O)Nc2ccc([N+](=O)[O-])cc2)nc2sc3c(c2c1=O)CCCC3
→ -4.0	-9.6
#43 COc1ccc(NC(=O)CN2CN(c3ccccc3)C3(CCN(C(=O)c4ccccc4F)CC3)C2=O)cc1
→ 29.0	27.8
#44 CCOc1ccc(C(C2Sc3nc(C)nn3C2=O)N2CCN(CC)CC2)cc1OC (centres undefined)
→ 0.5	-0.6
#45 CN(N=Cc1c(-c2ccccc2)nc2ccccn12)C(N)=S
→ -0.7	-3.6
#46 CC(OC(=O)C1=NN(C)C(=O)CC1)C(=O)Nc1ccc(F)cc1 (centres undefined)
→ -2.0	-2.7
#47 CC(Nc1nn(C)c(=O)n(C)c1=O)c1ccc(F)cc1 (centres undefined)
→ 4.1	-0.8
#48 COCCN(Cc1cccc(OS(=O)(=O)C(C)C)c1)C(=O)c1cccs1
→ 10.9	8.2
#49 CN(C(=O)c1cccs1)C(Cc1ccccc1F)C1CCN(Cc2ccc3nsnc3c2)CC1 (centres undefined)
→ 2.6	-2.3
#50 Cc1cc(C)c2c(CC(=O)N[C@@H]3C[C@@H](CO)N(C)C3)coc2c1C
→ 12.4	9.4
#51 CCCCCN(CC(=O)N1CCc2sccc2C1c1ccc(Cl)cc1Cl)C(=O)c1ccc(Cl)c([N+](=O)[O-])c1 (centres undefined)
→ 17.9	27.7
#52 COCCOC(=NC(C)C(C)C)NC(=O)c1cccc(OC)c1 (centres undefined)
→ -4.2	-3.1
#53 Oc1ccc(CCNc2ncnc3sccc23)cc1
→ 1.7	-2.1
#54 Cc1sc(CC(=O)O)nc1C(C)C
→ -1.1	-2.7
#55 Cn1c2c(c(=O)n(C)c1=O)C(c1ccccc1)C1C(=O)OCC1=N2 (centres undefined)
→ 4.2	6.9
#56 CC(=O)Oc1ccc(/C=C2\N=C(c3cccc(C)c3)OC2=O)cc1
→ -1.1	-4.0
#57 O=C(Cn1nc(-c2cccs2)oc1=O)OCc1nnsc1Cl
→ -1.7	-3.0
#58 COC(=O)C1=C(C)N(C)C(C)=C(C(=O)OC)C1c1ccc(C(F)(F)F)cc1
→ -1.3	-2.5
#59 Cc1cc(C(C)(C)C)cc(C(C)(C)C)c1N
→ -3.9	-4.6
#60 CCOC(=O)c1ccc2c(c1)nc(SCC(=O)NCc1ccco1)n2Cc1cccc(F)c1
→ 5.6	1.8

Additional results
Under each structure – NPYLR7 agonist	NPYLR7 agonist max-min
#61 COc1ncccc1NC(=O)NC1CCOc2ccccc21 (centres undefined)
→ -3.8	-4.8
#62 CCC(C)N1C(=O)/C(=C\c2ccc(S(C)(=O)=O)cc2)N(C)C1=S (centres undefined)
→ 22.8	21.4
#63 CN(CC(=O)C(C#N)c1ccccc1)Cc1ccccc1 (centres undefined)
→ 6.5&-10.7	3.7&-16.2
#64 CCc1ccccc1-n1c(=O)c2ccccc2n(C(CC)C(=O)NCCOC)c1=O (centres undefined)
→ 21.7	23.2
#65 Cc1cc(C(=O)N(C)C2CCS(=O)(=O)C2)c(C)n1C(C)c1ccccc1 (centres undefined)
→ 3.7	2.3
#66 CC1(C(=O)Nc2cccc(NC(=O)c3ccco3)c2)Cc2ccccc2C(=O)O1 (centres undefined)
→ 6.6	6.4
#67 CCOc1ccc(C(=O)Nc2ccc(-c3cc4ccccc4oc3=O)cc2)cc1[N+](=O)[O-]
→ 5.5	7.0
#68 COc1c(C(=O)NCCCN(C)Cc2ccccc2)cnc2c1c(C)nn2C
→ -0.2	-3.3
#69 COc1ccc2nc(-c3ccc(OC)c(OC)c3OC)n(Cc3ccccc3)c(=O)c2c1
→ 2.4	-0.1
#70 NC(=O)c1cc(NC(=O)C2CC2c2c(F)cccc2F)ccc1F (centres undefined)
→ 5.3&1.2	4.4&0.5
#71 Cc1ccncc1-c1cc2ccccc2o1
→ 1.1	-0.7
#72 COCC(C)NC(=O)CNc1cc(Cl)ccc1C (centres undefined)
→ 13.7	11.3
#73 O=c1cc(CNc2ccc(Cl)cc2F)nc2sccn12
→ 5.8	4.1
#74 Cc1ccc(C)c(S(=O)(=O)NCCOc2ccc3nnc(C)n3n2)c1
→ 6.9	16.4
#75 CCOC(=O)C1CCN(C(c2cccc(C)c2)C2Sc3nc(-c4ccco4)nn3C2=O)CC1 (centres undefined)
→ 2.2	0.1

A different layout for five compounds above:
16: O=C(Cn1cccc(C(F)(F)F)c1=O)c1ccc2c(c1)CCC2
17: CCCc1cc(=O)n(CC(=O)Nc2ccc(C)cc2)c(-n2nc(C)cc2C)n1
18: CCN1CCCCC1C(=O)N1CCOc2ccc(CN3CCC(OCc4ccccc4)CC3)cc2C1 (centres undefined)
19: Cc1cccc(C(C)CNC(=O)N2CCN(Cc3ccon3)CC2)c1 (centres undefined)
20: CCOc1cccc(C(=O)N2CCC(n3cnc4ccc(F)cc43)CC2)c1
Compound,16,17,18,19,20
NPYLR7 agonist,1.4,-2.4,5.4,7.2,5.1
NPYLR7 agonist max-min,-1.7,2.5,3.9,3.8,11.6

Further structures:
Under each structure – NPYLR7 agonist	NPYLR7 agonist max-min
#76 O=[N+]([O-])c1cccc(C2c3cccn3CCCN2Cc2ccc(F)c(Cl)c2)c1 (centres undefined)
→ 3.1	6.1
#77 O=[N+]([O-])c1ccc(CON=Cc2ccc(Cl)cc2Cl)cc1
→ -1.6	-3.6
#78 CC(C)(C)n1cc(CNC2CCN(Cc3ccccc3)C2=O)cn1 (centres undefined)
→ 0.9	4.3
#79 COC(=O)C(C)n1cnc2c(nnn2Cc2ccc(Cl)cc2)c1=O (centres undefined)
→ 5.2	3.7
#80 CN(C)CC(C)(C)CN1CC(COCc2ccco2)Oc2ncccc2C1=O (centres undefined)
→ 8.5	26.2
#81 NC(=S)NNC1=C2OC[C@@H](O2)[C@@H](NNC(N)=S)C1
→ -3.4	-7.7
#82 COC(=NCc1ccccn1)NC(=O)c1ccc(OC)cc1
→ 11.1	9.7
#83 CC(C)c1cccc(Nc2cc3c(cn2)cc(-c2cccnc2)n3C)c1
→ -2.0	-3.6
#84 CCOc1ccc(-c2nc(N)ncc2Oc2ccccc2OC)c(O)c1
→ 4.4	1.6
#85 CCCCNC(=S)N1CC2(C)CC1CC(C)(C)C2 (centres undefined)
→ 1.0	0.1
#86 C=CCN1C(=O)/C(=C\c2ccc(N3CCOCC3)cc2)SC1=S
→ -1.0	-7.4
#87 COc1ccccc1Nc1nc(N)nc(CSCC(=O)N2CCCCC2)n1
→ 13.8	13.2
#88 O=[N+]([O-])c1ccccc1Nc1nc(-c2ccccc2)c2cc(Br)ccc2n1
→ -3.1	-9.5
#89 c1ccc(Nc2ccccn2)nc1
→ -1.1&-2.0	-2.2&-1.6
#90 CCN1C(=O)C(=Cc2c(N3CCCCC3)nc3ccc(C)cn3c2=O)SC1=S
→ 3.5	3.0
#91 CC1CCC(NC(=O)COC(=O)CNC(=O)c2ccccc2)CC1 (centres undefined)
→ 4.9	1.4
#92 CSCC(=O)Nc1ccnc(Oc2ccccc2)c1
→ -3.2	-4.4
#93 Clc1ccc(C(c2ccccc2)n2ccnc2-c2cnc[nH]2)cc1 (centres undefined)
→ -2.7	-7.1
#94 Cn1c(=O)[nH]cc(CC(=O)N2CCOC(C(F)(F)F)C2)c1=O (centres undefined)
→ -1.3	-6.3
#95 CCc1ccc(Nc2nnc(SC(C)C(=O)N3CCC(C)CC3)s2)cc1 (centres undefined)
→ -1.2	3.9
#96 Cc1c(Cl)c(-c2ccc(CCNS(C)(=O)=O)cc2)nc2ccccc12
→ 3.2	479.9
#97 Cc1c(Cl)cccc1NC(=O)C(C)n1ncccc1=O (centres undefined)
→ -2.4	-3.8
#98 COC(=O)C(C)Oc1cc(OC(C)C(=O)OC)c2c3c(c(=O)oc2c1)CCC3 (centres undefined)
→ 6.5	7.0
#99 O=C(O)COc1ccccc1CN1CCCC(c2ccn[nH]2)C1 (centres undefined)
→ -0.4	1.4
#100 CC1CCN(/C=C(\C#N)S(=O)(=O)c2ccc(Cl)cc2)CC1
→ 4.9	2.0
#101 Cc1cc(-n2ccnc2)n2c(nc3ccccc32)c1C#N
→ 2.8	-0.4
#102 O=C(Cc1ccccc1Cl)NCc1cc(F)cc(F)c1
→ -0.6	-1.4
#103 COc1cc(F)c(-c2nccn2CCN2CCN(C(C)C)CC2)c(F)c1
→ 3.1	5.2
#104 CCN(CC)C(=O)Cn1cc(C(=O)N2CCCCC2c2cccc(OC)c2)nn1 (centres undefined)
→ 5.1	0.8
#105 O=C(Cc1c[nH]c2ccccc12)N1CCOC(c2ccccc2)C1 (centres undefined)
→ 20.5	21.3
#106 Cc1ccc(NC(=O)CSc2nc3c(-c4ccccc4)c[nH]c3c(=O)n2C)c(C)c1
→ 1.2	-1.7
#107 COc1cc2c(cc1OC)C(c1cccc(Cl)c1)N(C(=O)c1cccs1)CC2 (centres undefined)
→ 16.5	9.2
#108 O=C(NCC1CCCO1)c1nn(-c2ccccc2)c(=O)n(Cc2cccc(C(F)(F)F)c2)c1=O (centres undefined)
→ 8.7	14.0
#109 CC(=O)c1c(C)oc2c1cc(NS(=O)(=O)c1ccc(C(C)(C)C)cc1)c1ccccc12
→ -2.7	-3.6

Screening results (PubChem)
